Prx2 Sm inh – Schistosoma Mansoni Peroxiredoxins (Prx2). Schistosoma mansoni peroxiredoxin 2 (Prx2). S. mansoni Prx2 activity coupled to TGR/GSH (TGR is thioredoxin glutathione reductase), NADPH fluorescence loss, qHTS; some inactives read as strong as hits. Potency, µM. 65,000 compounds, 0.07% hits. AID 448, 2006; active means full or partial inhibition curve with a strong effect at the top dose; inconclusive means weaker partial or single-point curve; inactive means no accepted curve; also: series up to 57 µM; many of its hits are not listed in these tables
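qHTS, coupled TGR/Prx2 format; 15 min compound preincubation at RT; reaction started with H2O2 (2.5 mM aliquot); kinetic NADPH fluorescence decrease, ex 365/em 450 nm.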
Anthrax LT inh – qHTS Assay for Anthrax Lethal Toxin Internalization. Cells, anthrax lethal toxin internalization, FRET ratio (460/530). Potency, µM (highest dose often 40 µM), for inactives: top-dose activity change, negative = inhibition, actives largely listed as inhibitors. 70,000 compounds, 0.67% hits. AID 912, 2007; active = well fitted falling ratio curve with the 530 nm signal flat; inconclusive = other ratio curves, or a change in one channel alone; inactive = flat curves in the ratio and both channels; the % refers to the ratio; also: % is scaled to controls: 0 for no effect and ±100 for the full control effect; nearly all actives have a fitted effect of over 50% in size; tested in ME-180 cells; beta-lactamase reporter
* marks the source's active call; other numbers are inactive results; ? = inconclusive; / = no result given; [ ] = remark or other dose. Potency is read from the fitted curve at half-maximal effect.

Below each SMILES – Anthrax LT inh | Prx2 Sm inh
> CCCOn1c(OCC(C)C)nc2ccccc2c1=O
  0.5% | >57
> CC1CCCCN1CCNC(=O)c1ccc2c(=O)n(CCc3ccccc3)c(=O)[nH]c2c1 (centres undefined)
  -11.2% | >57
> O=C(CSc1ncnc2nc[nH]c12)N1CCN(c2ccccc2)CC1
  -4.0% | >57
> Cn1c(=O)cc(OCC(=O)NCCCN2CCN(c3ccccc3F)CC2)c2ccccc21
  ? | >57
> CCOC(=O)C1CCCN(C(=O)CN(c2ccc(OC)cc2)S(=O)(=O)c2c(C)noc2C)C1 (centres undefined)
  1.5% | >57
> CCc1ccccc1N(CC(=O)N1CCN(c2ccccc2F)CC1)S(C)(=O)=O
  -3.4% | >57
> O=C1[C@H]2[C@H]3[C@H](O)[C@H](O)C/C(=N/OCc4ccccc4)[C@@H]3CC[C@@H]2C(=O)N1c1cccc(Oc2ccccc2)c1
  -7.8%[8 µM] | /
> NC1=C2NC=N[C@@H]2N(C/C=C\c2ccccc2)C=N1
  -2.8%[8 µM] | >57
> O=C(NCc1ccccc1)C(c1cccnc1)N(Cc1ccco1)C(=O)c1ccccn1 (centres undefined)
  7.4% | >57
> CCOc1ccc(NC(=O)C/C(N)=N/O)cc1
  4.1% | >57
> CC(OC(=O)c1cccc(NS(C)(=O)=O)c1)C(=O)Nc1ccc(N2CCOCC2)cc1 (centres undefined)
  4.7% | >57
> OCCOCCO
  10.0% | /
> O=C(c1cccc(F)c1)N1CCC2(CC1)CN(c1ccncc1)C2
  9.7% | >57
> CCOC(=O)NC(Nc1ccc(S(N)(=O)=O)cc1)(C(=O)OCC)C(F)(F)F (centres undefined)
  / | >57
> Clc1ccc(C(c2nnnn2C2CCCCC2)N(Cc2cccnc2)Cc2ccco2)cc1 (centres undefined)
  -14.1% | >57

Gathered by group, the entries above with an NH in an aromatic ring (2)
Below each SMILES – Anthrax LT inh | Prx2 Sm inh
> CC1CCCCN1CCNC(=O)c1ccc2c(=O)n(CCc3ccccc3)c(=O)[nH]c2c1 (centres undefined)
  -11.2% | >57
> O=C(CSc1ncnc2nc[nH]c12)N1CCN(c2ccccc2)CC1
  -4.0% | >57

The list continues.
Below each SMILES – Anthrax LT inh | Prx2 Sm inh
> c1ccc2c(c1)nc1n2C2(N3CCOCC3)CCCC2C1N1CCOCC1 (centres undefined)
  5.0% | >57
> C=CCn1c(SCC(N)=O)nnc1-c1cc(Br)ccc1O
  17.9% | >57
> C[C@@H]1CC[C@H]2C(=O)O[C@H](CN=[N+]=[N-])CN2[C@@H]1c1ccc(Br)cc1
  2.8%[8 µM] | /
> COc1cc(-n2cnnn2)ccc1S(=O)(=O)N1CCOCC1
  -15.2% | >57
> FC(F)(F)c1ccccc1-c1ccc2ncnc(NCc3cccnc3)c2c1
  -12.1% | >57
> CCOC(=O)c1[nH]cnc1C(=O)NC1CCCCC1
  -13.3% | >57
> COc1ccccc1-c1noc(CCC(=O)Nc2ccccc2Cl)n1
  ? | >57
> O=C(CC1SCCNC1=O)Nc1cc(Cl)cc(Cl)c1 (centres undefined)
  -11.1% | >57
> CC(=O)OC[C@@H]1O[C@@H](O/N=C2/C[C@@H](O)[C@@H](O)[C@@H]3[C@H]4C(=O)N(c5ccc(F)cc5F)C(=O)[C@@H]4CC[C@@H]23)[C@H](OC(C)=O)[C@H](OC(C)=O)[C@@H]1OC(C)=O
  -2.9%[8 µM] | /
> COc1ccc(CC(=O)Nc2ccc(-c3nnc(-c4ccccc4)o3)cc2)cc1OC
  -2.9% | >57
> O=S(=O)(Nc1ccc2c(c1)oc1ccccc12)N1CCCC1
  -8.5% | >57
> Cn1c(CSc2ccccc2)c(C#N)c2ccccc21
  -22.2% | >57
> CSc1nc(O)c(C2OC(=O)c3ccccc32)c(=O)[nH]1 (centres undefined)
  5.9% | >57
> Cc1ccc2nc(NC(=O)CN(C)S(=O)(=O)c3cccc4nsnc34)sc2c1
  -6.7% | >57
> CCC(=O)c1cc2c(C)cc(=O)oc2c(C)c1O
  -5.7% | >57

Quoted from the listing.
C[C@@H]1CC[C@H]2C(=O)O[C@H](CN=[N+]=[N-])CN2[C@@H]1c1ccc(Br)cc1 in Anthrax LT inh is entered as 2.8%[8 µM]
COc1cc(-n2cnnn2)ccc1S(=O)(=O)N1CCOCC1 in Anthrax LT inh is entered as -15.2%

New compounds follow:
Below each SMILES – Anthrax LT inh | Prx2 Sm inh
> COc1ccccc1OCC(=O)NCC1CCCCC1
  -5.1% | >57
> CCN(CC)S(=O)(=O)c1cc(C(=O)Nc2ccc(Cl)cn2)ccc1C
  0.7% | >57
> Cc1nnc(Nc2ccc(C(=O)NCCO)cc2)c2ccccc12
  4.3% | >57
> CCC(=NCCCN(C)C)c1c(O)n(-c2ccc(OC)cc2)c(=O)[nH]c1=O
  7.6% | >57
> CCS(=O)(=O)c1ccc(O)c(NC(=O)Nc2ccccc2)c1
  0.7% | >57
> COc1ccc(N(CC(=O)Nc2ccc3c(c2)OCO3)S(C)(=O)=O)c(OC)c1
  -4.5% | >57
> CCC(C)(NC(=O)c1ccccn1)C(=O)NC1CCCCC1 (centres undefined)
  33.7% | >57
> CCOc1c(C(N)=O)c(-c2ccccc2)c2c(=O)[nH]c3ccccc3n12
  ? | >57
> O=C(O)C1C2C=CC(O2)C1C(=O)Nc1ccc(S(=O)(=O)N2CCc3ccccc32)cc1 (centres undefined)
  0.0% | >57
> CC(C)OC(=O)c1cn(-c2ccccc2)nc1-c1ccco1
  -14.3% | >57
> COC(=O)Cn1c2c(c3cc(C)ccc31)CCCC2
  / | >57
> COC(=O)NC1CSCC1OC(=O)CN1C(=O)c2ccccc2C1=O (centres undefined)
  6.6% | >57
> C[C@@H](O)[C@H]1C(=O)N2C(C(=O)O)=C(S[C@@H]3CN[C@H](C(=O)N(C)C)C3)[C@H](C)[C@H]12
  0.501µM* | >57
> c1ccc(SCCSc2ccccc2)cc1
  ? | /
> O=C(O)c1ccc(CSc2ncn[nH]2)cc1
  ? | >57
> O=C(Cn1cnc2c(nnn2Cc2ccc(Cl)cc2)c1=O)OCc1ccccc1
  -9.2% | >57
> COC(=O)c1c(N)c2ccccc2[nH]c1=O
  3.4% | >57
> COC(=O)C1=C(NC(=O)c2cccc(C)c2)CCS1
  22.1% | >57
> Fc1ccc(CN2CCCCCCC2)c(F)c1
  -4.0% | /
> O=c1[nH]c2ccc(Cl)cc2c(-c2ccccc2)c1CN1CCOCC1
  ? | >57
> Cc1cc(C)n(-c2ccc(OCC(=O)O)nn2)n1
  -15.1% | >57
> COC(=O)c1sccc1NC(=O)c1cc(C)on1
  4.1% | >57
> COc1ccc(OCCOC(=O)c2cccs2)cc1
  -2.3% | >57
> COc1ccc(-c2noc(CCC(=O)NC3CCCCC3)n2)cc1OC
  -8.0% | >57
> Nc1ccc(Cl)cc1N
  1.4% | /
> CCOC(=O)C1CCN(C(=O)CSC2=NCCS2)CC1
  13.4% | >57
> COc1ccc(OCC(=O)c2c(O)c3ccccc3oc2=O)cc1
  / | >57
> COc1ccc(-c2cc(C(=O)Nc3cc(OC)c(OC)c(OC)c3)no2)cc1OC
  ? | >57
> CCN1CCCC1CNC(=O)CSCc1nc(-c2ccccc2C)oc1C (centres undefined)
  7.0% | >57
> CCOc1cc2[nH]c(=S)n(CCOC)c(=O)c2cc1OCC
  -1.5% | >57

Two compounds drawn at random from the list so far:
Below each SMILES – Anthrax LT inh | Prx2 Sm inh
> CCOC(=O)C1CCN(C(=O)CSC2=NCCS2)CC1
  13.4% | >57
> O=C(CC1SCCNC1=O)Nc1cc(Cl)cc(Cl)c1 (centres undefined)
  -11.1% | >57

Other structures
Below each SMILES – Anthrax LT inh | Prx2 Sm inh
> Cc1cccc(CN2CCC(CNC(=O)C3CCCN(S(=O)(=O)c4cnc[nH]4)C3)CC2)c1 (centres undefined)
  -10.6% | >57
> Cc1cc(NC(=O)CSc2nc(-c3ccccc3)cs2)no1
  -17.0% | >57
> C1CN(c2nc3nonc3nc2N2CCOCC2)CCO1
  -11.9% | >57
> COc1ccccc1C1/C(=C(/O)c2ccccc2)C(=O)C(=O)N1CC(C)C (centres undefined)
  4.9% | >57
> CCn1c(CNC(=O)c2cccs2)nnc1SCC(=O)NCCc1ccccc1
  9.1% | >57
> CC(=O)OC[C@@H]1O[C@@H](O/N=C2/C[C@@H](O)[C@@H](O)[C@@H]3[C@@H]4C(=O)N(C[C@@H]5CCCO5)C(=O)[C@H]4CC[C@@H]23)[C@H](OC(C)=O)[C@H](OC(C)=O)[C@@H]1OC(C)=O
  -1.9%[8 µM] | /
> CO[C@H]1COC(=O)[C@@H](Cc2ccccc2)NC(=O)[C@@H](C)COC(=O)CCC[C@@H]1C
  -6.0%[1.6 µM] | /
> Cc1ccc(C2C(S(C)(=O)=O)=C(O)C(=O)N2c2ccccc2)cc1 (centres undefined) (tested in a mixture with another compound)
  -18.2% | >57
> O=C(O)c1ccccc1OCCOCCOc1ccccc1C(=O)O
  -2.5% | >57
> CCC(=O)N1C(C(=O)N2CCCC2)CSC1c1ccc(OC)cc1 (centres undefined)
  ? | >57
> Cc1ccc(OCC(=O)NCc2ccco2)cc1C
  10.6% | >57
> Cc1nc(Nc2ccc3c(c2)OCCO3)c2nnn(Cc3ccccc3Cl)c2n1
  ? | >57
> CC12CC(NC(=O)N1Cc1ccccc1)c1ccccc1O2 (centres undefined)
  9.4% | >57
> c1ccc2c(c1)nc(N1CCOCC1)c1c3ccccc3[nH]c21
  -9.0% | >57
> O=c1cc(CN2CCN(c3ccccc3)CC2)c2cc(O)c(-c3ccccc3)cc2o1
  5.5% | >57
> Cc1c(CN2CCC(C)CC2)c(=O)n(-c2ccccc2)n1C
  ? | /
> c1ccc([C@H]2CNCc3ccccc32)cc1
  ? | >57
> CCN(CC)CCNc1nc2c(c(=O)[nH]c(=O)n2C)n1CC(O)COc1ccc(Cl)cc1Cl (centres undefined)
  -10.4% | >57
> COc1ccc(Nc2nc(CC(C)=O)ns2)cc1OC
  8.4% | >57
> CCOC(=O)C1OC1(C)c1ccccc1 (centres undefined)
  -5.5% | /
> CC(=O)NC1CC2CCC(C1)N2Cc1ccc(C)cc1 (centres undefined)
  -13.3% | >57
> Cc1nc(C)c(-c2csc(Nc3cccnc3)n2)s1
  3.1% | >57
> CCOC(=O)N1CCC(N2Cc3cccc(C(=O)NCC4CCN(CC(C)C)C4)c3C2=O)CC1 (centres undefined)
  ? | >57
> COc1ccccc1C(=O)N1CCN(C(=O)COc2cccc(C)c2)CC1
  -10.7% | >57
> CCCOC(=O)Nc1ccccc1C(N)=O
  0.5% | >57
> COc1ccc(C(=O)N2CCC3(CC2)CN(c2ccccc2)C3)cc1
  1.3% | >57
> O=C(Nc1ccccc1Cl)c1ccc2c(c1)N(Cc1ccc(F)cc1)C(=O)CS2=O (centres undefined)
  ? | >57
> CCNC(=O)NC(=O)COC(=O)c1ccccc1SCC(=O)NC(=O)NCC
  18.9% | >57
> CCCS(=O)(=O)C(=C1NCCO1)S(=O)(=O)CCC
  12.2% | >57
> Cc1nnc(C)n1/N=C/C=C/c1ccccc1
  -14.2% | >57
> COc1cc2c(C#N)c(N3CCOCC3)nc(N)c2c(N)n1
  ? | >57
> COc1ccc(C2(C(=O)O)CCCC2)cc1
  0.2% | >57
> CC1CN(C(=O)c2ccccc2)OC(c2ccc3c(c2)OCO3)O1 (centres undefined)
  7.2% | >57
> Cc1ccc(-c2nnc(CSc3nncn3N)o2)cc1
  6.3% | >57
> CCC(=NCc1ccco1)c1c(O)n(C2CCCCC2)c(=O)[nH]c1=O
  -2.9% | >57
> CCOc1ccccc1N/C=C/C(=O)C(C)(C)C
  -4.3% | >57
> CC1CCc2nn(CC(=O)NCc3ccc(F)cc3)cc2C1 (centres undefined)
  -4.6% | >57
> CCN(CC)CCn1c(OC)cc(=O)[nH]c1=O
  ? | >57
> Cc1nc2cc(NC(=O)N3CCN(c4ccccn4)CC3)ccc2o1
  1.0% | >57
> CCN(CC)C(=O)C1CCCN(C/C(C)=C/c2ccccc2)C1 (centres undefined)
  4.5% | >57
> Cc1nnc(SCC(=O)Nc2cc(C(F)(F)F)ccc2N2CCOCC2)o1
  2.2% | /
> CCOc1cc(C)c(Cl)cc1S(=O)(=O)NCc1ccc2c(c1)OCO2
  -26.9% | >57
> Cc1ccc(C2C(C#N)=C(N)SC(N)=C2C#N)c(C)c1
  9.7% | >57
> O=P(OCC(F)(F)C(F)F)(N1CCOCC1)N1CCOCC1
  6.1% | >57
> O=c1c2cn[nH]c2nc(SCc2ccc3c(c2)OCCO3)n1-c1ccccc1
  3.9% | >57
> CC1(C)CC(=O)C2=C(C1)NC(SCC(=O)Nc1ccccc1)=C(C#N)C21CCCCC1
  ? | >57
> Cc1ccc(-c2csc3nc(C)n(-n4cccc4)c(=O)c23)o1
  ? | /
> O=S(=O)(NCCC1=CCCCC1)c1cccc2nsnc12
  ? | >57
> Cc1ccc2[nH]c(=O)c(-c3noc(C(C)C)n3)cc2c1
  -11.3% | /
> CCN(CC)S(=O)(=O)c1ccc2[nH]cc(C(=O)NCCC3=CCCCC3)c(=O)c2c1
  -8.0% | ?
> CC(C)C(=O)Nc1ccc(NC(=O)c2cccs2)cn1
  -10.5% | >57
> Cc1cc(N2CCN(c3ccccn3)CC2)n2c(nc3ccccc32)c1C#N
  -3.1% | >57
> COC(=O)n1c(=O)oc2cc(S(=O)(=O)N3CCCCC3)ccc21
  0.9% | >57
> CCC(=O)N1CCN(c2ccc(NC(=O)c3ccco3)cc2)CC1
  ? | >57
> Cc1cc(Cl)c(S(=O)(=O)NCC2CCCO2)cc1OCC(N)=O (centres undefined)
  4.5% | >57

Assay outcomes from PubChem.

This is a subset (hit frequency here may not be typical).
